Polio RdRp inh: inhibitors of poliovirus RNA polymerase binding and polymerization; P03300; poliovirus polymerase elongation, fluorescence polarization; active compounds read low; % elongation, % (compound at 16.7 µg/mL); 150,000 compounds, 0.66% hits; AID 588519; in the data active = % elongation below about 90%; also: some results filed as inactive read as strong as hits
Target sequence (P03300 1749-2209 limits assumed): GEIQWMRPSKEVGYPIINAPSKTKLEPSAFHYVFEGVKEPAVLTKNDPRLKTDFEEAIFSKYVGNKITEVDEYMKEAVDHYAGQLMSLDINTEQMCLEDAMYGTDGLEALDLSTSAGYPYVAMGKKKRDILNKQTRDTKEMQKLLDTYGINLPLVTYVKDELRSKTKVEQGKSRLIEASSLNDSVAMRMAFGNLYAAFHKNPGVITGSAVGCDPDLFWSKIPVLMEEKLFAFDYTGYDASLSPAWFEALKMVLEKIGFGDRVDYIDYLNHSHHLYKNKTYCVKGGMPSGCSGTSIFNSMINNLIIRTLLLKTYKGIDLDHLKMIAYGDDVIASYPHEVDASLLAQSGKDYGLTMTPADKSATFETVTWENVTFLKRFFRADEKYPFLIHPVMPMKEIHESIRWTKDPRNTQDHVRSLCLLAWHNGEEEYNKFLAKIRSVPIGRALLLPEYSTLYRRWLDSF
Polio RdRp inh intensity: recorded beside Polio RdRp inh, whose call it bears; % elongation; measured here: total intensity read-out; formula for this scale not given here;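 total fluorescence in place of polarization; lower means less elongation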
* marks the source's active call; other numbers are inactive results. A portion of the library; the hit share may differ from the screen's.

SMILES	Polio RdRp inh	Polio RdRp inh intensity
Cc1ccc2c(c1)N(C(=O)N1CCC(C(=O)NCc3ccco3)CC1)CC(C)O2 (stereo not given)	112	109
COc1cccc(CNS(=O)(=O)c2c(C(=O)N3CCC(C)CC3)c(C)n(C)c2C)c1	108	110
Cc1cc(C)cc(C(=O)Nc2cc(C(F)(F)F)ccc2N2CCN(c3ccccc3)CC2)c1	105	108
Cc1cccc(N(CC(=O)Nc2ccc(Br)cc2)S(C)(=O)=O)c1C	104	101
COc1cccc(CNC(=O)CCc2c(C)c3ccc(O)c(C)c3oc2=O)c1	111	116
CCCSC1=NC2(CCN(C(=O)NC3CCCCC3)CC2)N=C1c1ccccc1	102	111
Cc1cc(C)cc(NC(=O)CSc2nc3ncccc3[nH]2)c1	114	105
O=C(NCCS(=O)(=O)N1CCN(c2ccc(F)cc2)CC1)C(c1ccccc1)c1ccccc1	106	100
N#Cc1c[nH]n2c(NC3CCCC3)c(-c3cccc(Br)c3)nc12	108	104
CCC(CC)C(=O)Nc1nnc(S(=O)(=O)N2CCCCCC2)s1	102	107
Cc1c(Cl)cccc1NC(=O)CCCn1nc(C)c2sc3ccccc3c2c1=O	114	116
Cn1cc(S(=O)(=O)N2CCCCCC2)cc1C(=O)NCc1ccc(F)cc1	99	100
COc1cccc(CNC(=O)C2CCN(S(=O)(=O)N3CCC(C)CC3)CC2)c1	104	109
CCOc1ccc(C(=O)N2CCCCC2CCN2CCOCC2)cc1 (stereo not given)	105	106
Cc1c(C(=O)Nc2ccc(-c3nc4cc(Cl)ccc4o3)cc2)oc2ccccc12	105	107
Cc1ccc(C)c(S(=O)(=O)c2nnn3c2nc(N2CCCC2)c2sccc23)c1	108	112
Cc1cccc2c1-c1sc(C(=O)Nc3ccccc3C(N)=O)cc1CO2	105	109
Cc1ccc(CSCC(=O)N2CCN(c3ccc(F)cc3)CC2)cc1	112	115
CCOc1ccccc1C(=O)NCC(c1cccs1)S(=O)(=O)c1ccc(F)c(C)c1 (stereo not given)	101	100
Cc1ccc(NC(=O)CCCn2c(=O)c3cccn3c3ccccc32)c(C)c1	99	98
CC(C)c1ccc(NS(=O)(=O)c2ccc3[nH]cc(C(=O)NC4CCCC4)c(=O)c3c2)cc1	111	110
CN(C)C(=O)c1ccc(S(=O)(=O)NCc2ccc(Cl)cc2)s1	99	96
CCOc1ccc(NC(=O)c2oc3ccccc3c2NC(=O)Cc2ccc(F)cc2)cc1	105	107
CCCc1cnc2c(c1SCC(=O)Nc1ccccc1OCC)c(=O)n(C)c(=O)n2C	99	104
CCOc1ccccc1C(=O)N(Cc1cc(OC)c(OC)c(OC)c1)c1ccccn1	103	108

Reformatted bar-delimited: 20 of the compounds above.
SMILES | Polio RdRp inh | Polio RdRp inh intensity
Cc1ccc2c(c1)N(C(=O)N1CCC(C(=O)NCc3ccco3)CC1)CC(C)O2 (stereo not given) | 112 | 109
COc1cccc(CNS(=O)(=O)c2c(C(=O)N3CCC(C)CC3)c(C)n(C)c2C)c1 | 108 | 110
Cc1cc(C)cc(C(=O)Nc2cc(C(F)(F)F)ccc2N2CCN(c3ccccc3)CC2)c1 | 105 | 108
Cc1cccc(N(CC(=O)Nc2ccc(Br)cc2)S(C)(=O)=O)c1C | 104 | 101
COc1cccc(CNC(=O)CCc2c(C)c3ccc(O)c(C)c3oc2=O)c1 | 111 | 116
CCCSC1=NC2(CCN(C(=O)NC3CCCCC3)CC2)N=C1c1ccccc1 | 102 | 111
Cc1cc(C)cc(NC(=O)CSc2nc3ncccc3[nH]2)c1 | 114 | 105
O=C(NCCS(=O)(=O)N1CCN(c2ccc(F)cc2)CC1)C(c1ccccc1)c1ccccc1 | 106 | 100
N#Cc1c[nH]n2c(NC3CCCC3)c(-c3cccc(Br)c3)nc12 | 108 | 104
CCC(CC)C(=O)Nc1nnc(S(=O)(=O)N2CCCCCC2)s1 | 102 | 107
Cc1c(Cl)cccc1NC(=O)CCCn1nc(C)c2sc3ccccc3c2c1=O | 114 | 116
Cn1cc(S(=O)(=O)N2CCCCCC2)cc1C(=O)NCc1ccc(F)cc1 | 99 | 100
COc1cccc(CNC(=O)C2CCN(S(=O)(=O)N3CCC(C)CC3)CC2)c1 | 104 | 109
CCOc1ccc(C(=O)N2CCCCC2CCN2CCOCC2)cc1 (stereo not given) | 105 | 106
Cc1c(C(=O)Nc2ccc(-c3nc4cc(Cl)ccc4o3)cc2)oc2ccccc12 | 105 | 107
Cc1ccc(C)c(S(=O)(=O)c2nnn3c2nc(N2CCCC2)c2sccc23)c1 | 108 | 112
Cc1cccc2c1-c1sc(C(=O)Nc3ccccc3C(N)=O)cc1CO2 | 105 | 109
Cc1ccc(CSCC(=O)N2CCN(c3ccc(F)cc3)CC2)cc1 | 112 | 115
CCOc1ccccc1C(=O)NCC(c1cccs1)S(=O)(=O)c1ccc(F)c(C)c1 (stereo not given) | 101 | 100
Cc1ccc(NC(=O)CCCn2c(=O)c3cccn3c3ccccc32)c(C)c1 | 99 | 98

(cont.)
SMILES	Polio RdRp inh	Polio RdRp inh intensity
O=C(CN1C(=O)C2(SCC(=O)N2c2ccc(F)c(F)c2)c2ccccc21)Nc1ccccc1F (stereo not given)	110	111
COc1ccccc1CNC(=O)c1ccc(-c2nc(CS(=O)c3ccc(C)cc3)c(C)o2)cc1 (stereo not given)	106	103
COc1ccccc1CNC(=O)CCc1c(C)c2cc3c(C)c(C)oc3cc2oc1=O	105	92
COc1ccc(C2C=C(c3ccc(Cl)cc3)Nc3nc(NC(=O)CCC(=O)O)nn32)cc1 (stereo not given)	98	122
Cc1ccc(S(=O)(=O)Nc2cccc(-c3ccc(N4CCCC4)nn3)c2)c(C)c1	112	107
CCc1ccc(NC(=O)C2CCCN(S(=O)(=O)c3c(C)noc3/C=C/N(C)C)C2)cc1 (stereo not given)	106	106
O=C(c1cn(CCOc2ccccc2F)c2ccccc12)C1CCCCC1	108	110
O=C(NC1CC(=O)N(c2ccc(F)cc2)C1)c1ccc(S(=O)(=O)N2CCCC2)cc1 (stereo not given)	104	112
COc1ccc(-c2nc(CSCC(=O)NCCc3ccccc3)c(C)o2)cc1	103	103
CCc1cccc(CC)c1NC(=O)c1ccc2c(c1)CCN2S(=O)(=O)c1ccccc1	108	106
CC(NC(=O)CN1C(=O)COc2ccc(S(=O)(=O)N3CCCCCC3)cc21)c1ccccc1 (stereo not given)	107	110
CCc1ccccc1NC(=O)c1nc2nc(C)cc(C(F)F)n2n1	109	113
Cc1ccc(NCc2nc3ccccc3n2CCOc2ccccc2)cc1	104	102
CCOC(=O)c1ccc(N2C(=O)c3n[nH]c(-c4ccco4)c3C2c2ccccc2OC)cc1 (stereo not given)	104	107
CCOc1ccc(CNC(=O)c2cc3c(=O)n(Cc4cccs4)ccc3nc2C)cc1	104	85
Cc1ccc(-n2c(=O)[nH]c3sc4c(c3c2=O)CCNC4)cc1C	103	106
CCOc1ccc(OCC)c(NS(=O)(=O)c2c(C(=O)N3CCC(C)CC3)c(C)n(C)c2C)c1	114	101
COc1cccc(CNC(=O)C2CCN(S(=O)(=O)c3ccc4c(ccn4C)c3)CC2)c1	106	109
Cc1ccc(S(=O)(=O)n2nc(-c3ccco3)nc2NCc2ccccc2Cl)cc1	107	112
COc1ccc(NC(=O)CC(C)S(=O)(=O)c2ccc3c(c2)NC(=O)CO3)cc1OC (stereo not given)	102	103
COC(=O)c1ccccc1NC(=O)CCC(=O)N1CCOc2ccccc21	111	111
Cc1ccc(C(C)C)c(OCC(=O)Nc2cccc(-c3nc4ncccc4o3)c2)c1	109	110
CCOC(=O)c1ccc(NC(=O)CC2C(=O)N(c3ccc(F)cc3)C(=O)N2Cc2ccc(C)cc2)cc1 (stereo not given)	100	102
Cc1ccc(-c2nnc(SCCOc3ccccc3)o2)cc1	111	102
CCN(Cc1ccccc1)C(=O)c1cc2c(s1)-c1c(C)cccc1OC2	107	113
The list continues.
SMILES	Polio RdRp inh	Polio RdRp inh intensity
Cc1cc(C(F)(F)F)c2c(N)c(C(=O)Nc3c(Cl)cccc3Cl)sc2n1	100	111
Cc1nnc2c(Nc3cccc(O)c3)nc3ccccc3n12	107	110
O=C(Nc1ccc2nc(SCC(=O)N3CCCC3)sc2c1)c1cccc(Cl)c1	108	115
CCCCN(C)c1nnc(NC(=O)Nc2ccc(Br)c(C)c2)s1	105	117
Cc1nnc(NC(=O)CSc2nc3c([nH]c4ccccc43)c(=O)n2-c2ccc(Cl)cc2)s1	102	103
CC(=O)c1c(C)n(-c2cccc(C)c2)c2ccc(OC(=O)COc3ccccc3)cc12	106	112
Cc1ccccc1C(=O)Nc1ccc2nc(SCC(=O)N(C)c3ccccc3)sc2c1	107	108
Cc1cccc(NC2=CC(c3cccc(Br)c3)N(c3cccc(C)c3)C2=O)c1 (stereo not given)	108	104
Cc1nc2ccc(S(=O)(=O)N(CC(=O)Nc3ccc(Cl)cc3)Cc3ccccc3)cc2s1	104	104
Cc1ccc(S(=O)(=O)c2nnn3c2nc(NCCc2ccccc2)c2sccc23)cc1	106	112
Cc1ccc(OCCn2c(COc3ccc(Cl)cc3)nc3ccccc32)cc1	103	108
COc1ccc(NC(=O)c2ccc3c(c2)N(Cc2cccc(Cl)c2)C(=O)c2ccccc2S3=O)cc1Cl (stereo not given)	106	95
Cc1cc(C)cc(-n2c(/C=C/c3cccc(F)c3)nc3ccccc3c2=O)c1	111	114
Cc1c(Cl)cccc1NC(=O)CSc1ccc(-c2ccccn2)nn1	101	100
CCCCN(C)CCCNC(=O)C1CCN(S(=O)(=O)CCC)CC1	117	123
COc1cc(-c2noc(-c3cc(C)[nH]n3)n2)cc(OC)c1OC	106	103
Cc1ccccc1NS(=O)(=O)c1nnc(NC(=O)c2ccccc2C)s1	105	108
CCCCOC(=O)c1ccc(NC(=O)c2cnc3ccc(C)cn3c2=O)cc1	99	105
O=C(NNc1ncnc2c1cnn2-c1ccccc1)c1ccccc1	105	104
CCC(C)n1c(SCC(=O)Nc2ccccc2C(=O)OC)nc2ccsc2c1=O (stereo not given)	103	108
Cc1cc(C)n(-c2nc3ccccc3nc2Nc2cccc(C(=O)NCCc3ccccc3)c2)n1	108	112
COc1ccc2nc(NC(=O)c3cc(=O)c4cc(C)cc(C)c4o3)sc2c1	108	114
CC(Sc1nnc2ccc3ccccc3n12)C(=O)Nc1ccc(Cl)cc1 (stereo not given)	104	100
COc1cccc(CNC(=O)Nc2ccc3c(c2)N(C)C(=O)c2ccccc2S3)c1	101	106
Cc1ccc(CNC(=O)c2cc3sccc3n2Cc2ccc(Cl)cc2)cc1	102	104
(cont.)
SMILES	Polio RdRp inh	Polio RdRp inh intensity
O=C(NCCCO)C(=O)Nc1c2c(nn1-c1ccccc1)CSC2	104	102
CC(=O)N1N=C(c2ccc(C)cc2)CC1c1cn(-c2ccccc2)nc1-c1cccs1 (stereo not given)	100	97
CC(C)(C)NC(=O)c1oc2ccccc2c1NC(=O)c1ccccc1F	105	107
CCOc1ccccc1NC(=O)CN1C(=O)CC(c2ccc(OC)c(OC)c2)Sc2ccccc21 (stereo not given)	106	113
CC1CCN(c2ccc(NC(=O)c3cccc(Cl)c3)cc2C(=O)O)CC1	108	108
O=C(NCc1ccccc1)c1ccc2c(c1)N(Cc1cccc(Cl)c1)C(=O)c1ccccc1S2(=O)=O	104	108
CCN(Cc1ccccc1)C(=O)C1CCC(CNS(=O)(=O)c2ccc3c(c2)CCCC(=O)N3)CC1 (stereo not given)	116	114
COc1ccc(Nc2cc(C(=O)NC3CCCC3)c3ccccc3n2)c(OC)c1	111	115
O=c1c2cn[nH]c2nc(SCc2cccc(Br)c2)n1-c1ccc(Cl)cc1	100	99
Cc1c(C(=O)Nc2ccc(Br)cc2F)sc2ncnc(N(C)C3CCCCC3)c12	112	130
Cc1ccc(Cl)cc1-n1nnc(-c2nc(-c3ccc4c(c3)OCO4)no2)c1C	102	99
COC(=O)c1cc(S(=O)(=O)NCC2CCN(Cc3cccc(F)c3)CC2)c[nH]1	107	115
CCOc1ccccc1NC(=O)CCS(=O)(=O)c1ccc(OC)cc1	111	117
COc1ccc2c(c1)c(=O)c(C(=O)c1ccccc1)cn2CC(=O)Nc1ccc2c(c1)OCO2	106	109
CCOc1ccc(C2C(C(=O)Nc3ccccc3)=C(C)Nc3nc(-c4ccccc4)nn32)cc1OC (stereo not given)	108	110
CCOc1ccc(CCNC(=O)c2cc3c(s2)-c2ccccc2OC3)cc1OCC	103	105
COc1ccc(N2CCN(S(=O)(=O)c3ccc(OC)c(-c4noc(C)n4)c3)CC2)cc1	109	105
O=C(NCc1ccccc1Cl)C1CCCN(c2nc3ccccc3n3cccc23)C1 (stereo not given)	114	115
CCS(=O)(=O)c1c(S(=O)(=O)CC)c2cc(C(C)(C)C)ccn2c1C(=O)c1ccc(F)cc1	105	107
COc1ccc(S(=O)(=O)N(CCc2ccccc2)CC(=O)NCc2ccccc2)cc1OC	103	105
Cn1c(=O)c2c(c3ccccc31)OC(=O)CC2c1cccc(F)c1 (stereo not given)	103	104
COc1ccccc1-n1c(/C=C/c2ccccc2)nc2ccccc2c1=O	104	106
Cc1ccc(NC(=O)C2CCCN(C(=O)c3cnn(-c4ccccc4)c3-n3cccc3)C2)cc1 (stereo not given)	108	109
COc1ccc(CNC(=O)C2=C(C)C(=O)OC23CCCCC3)cc1OC	105	105
O=C(Nc1ccc(N2CCN(c3ccc(F)cc3)CC2)c(C(=O)O)c1)c1ccccc1F	109	108
COc1ccc(CNC(=O)CC(c2ccc(OC)c(OC)c2)N2Cc3ccccc3C2=O)cc1 (stereo not given)	104	106
CCOC(=O)c1cnc2ccc(OCC)cc2c1Nc1cc(Cl)c(OC)cc1OC	105	108
Cc1cc(C)cc(NC(=O)CSc2nc3c(c(=O)[nH]2)CN(Cc2ccc(F)cc2)CC3)c1	107	104
CCCN1CCN(CC2=C(C(=O)OCC)C(c3cccc(OC)c3OC)NC(=O)N2)CC1 (stereo not given)	110	116
